Menin-MLL FL inh = menin-MLL binding inhibition, fluorescein peptide. Fluorescence polarization, fluorescein-MLL peptide displacement from menin. FP activity change, % at 61.4 µM. 290,000 tested, under 10 active; inconclusive = falling polarisation curve, or a change in total fluorescence; inactive = total fluorescence flat and polarisation flat or rising; no compound was filed as active; the % refers to the polarisation; negative = inhibition;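 further: % of control where 0% means no effect; inhibitors lower the polarisation; unlabelled MLL peptide was the positive control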
PINK1 expr mod = modulators of PINK1 expression; PINK1 immunofluorescence, high-content cytometry, 24 h; Potency, µM (highest dose often 76.6 µM), for inactives: at the top dose activation (PINK1 increase), actives largely listed as activators; 410,000 tested, 0.2% active; AID 624263; active = well fitted activation curve with a large enough effect; inconclusive = small, poorly fitted or top-dose-only effect; inactive = flat fitted curve, though single readings scatter; cell line not stated here;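 further: potency means the concentration at half of the fitted maximal effect; % of control where 0% means no effect; nearly all actives have a fitted effect of over 65% in size; a mitochondrial uncoupler was the plate control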
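Decision-based qHTS: stable cells, 24 h exposure to five compound concentrations, CCCP as control. Fixed cells stained for PINK1 plus nuclear, mitochondrial and cell markers, cytometer read.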
TRPV1 PAM = human TRPV1 potentiation; 320,000 tested, 0.02% active; potentiation, % at 8.33 µM; Q8NER1; AID 540277; TRPV1-expressing cells, Fluo-8 calcium influx, capsaicin EC20 potentiation; host cell line not named in the record; control for the full effect not named in the record; active means potentiation above 80%; inconclusive means 30% to 80%; inactive means below 30%; further: 0% is about no effect
Target sequence (Q8NER1 whole entry, looked up): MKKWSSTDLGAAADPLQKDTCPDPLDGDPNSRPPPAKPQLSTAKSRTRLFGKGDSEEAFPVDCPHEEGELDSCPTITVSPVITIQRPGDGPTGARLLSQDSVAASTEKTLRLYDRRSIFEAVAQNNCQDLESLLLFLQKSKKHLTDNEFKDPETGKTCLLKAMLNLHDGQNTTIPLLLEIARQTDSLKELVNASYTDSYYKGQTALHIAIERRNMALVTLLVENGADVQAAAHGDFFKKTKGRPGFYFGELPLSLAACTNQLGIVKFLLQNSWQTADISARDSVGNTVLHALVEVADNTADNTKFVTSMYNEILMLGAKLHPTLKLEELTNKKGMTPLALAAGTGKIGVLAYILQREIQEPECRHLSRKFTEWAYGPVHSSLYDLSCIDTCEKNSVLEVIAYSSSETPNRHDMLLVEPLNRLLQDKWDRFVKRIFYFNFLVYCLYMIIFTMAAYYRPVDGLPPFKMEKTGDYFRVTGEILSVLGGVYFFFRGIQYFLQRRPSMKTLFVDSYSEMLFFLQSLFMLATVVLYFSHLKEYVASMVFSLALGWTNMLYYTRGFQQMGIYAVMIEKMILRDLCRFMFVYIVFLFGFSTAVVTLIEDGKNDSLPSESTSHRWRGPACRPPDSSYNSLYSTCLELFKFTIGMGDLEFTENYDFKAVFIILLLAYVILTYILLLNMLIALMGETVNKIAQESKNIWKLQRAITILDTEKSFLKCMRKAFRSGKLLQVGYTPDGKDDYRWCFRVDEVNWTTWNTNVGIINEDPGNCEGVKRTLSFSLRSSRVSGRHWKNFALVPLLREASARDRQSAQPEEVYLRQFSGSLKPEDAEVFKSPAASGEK
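TRPV1-expressing cells were cultured overnight at 35.5C and loaded with Fluo-8 calcium dye for 40 to 90 min at room temperature. After a 10 s baseline, compound was added and calcium influx was read kinetically for 3 min (ex 480/em 520 nm).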
ClpP mod = qHTS Assay for Activators of ClpP | ATP-dependent Clp protease proteolytic subunit (Bacillus subtilis (strain 168)), P80244 | purified B. subtilis ClpP, FRET peptide cleavage, 20 min | Potency, µM (top dose mostly 57.5 µM), for the others: top-dose activity change, negative = active | 340,000 tested, 1.9% active | AID 651965, 2013; active = well fitted falling curve with a large enough effect; inconclusive = small, poorly fitted or top-dose-only effect; inactive = no such curve, though single readings can be large or run the other way; further: potency means the concentration at half of the fitted maximal effect; the source files actives as falling curves though it sought activators and does not explain the sign; nearly all actives have a fitted effect of over 65% in size; many hits overshoot -100%
Target sequence (P80244 whole entry, looked up): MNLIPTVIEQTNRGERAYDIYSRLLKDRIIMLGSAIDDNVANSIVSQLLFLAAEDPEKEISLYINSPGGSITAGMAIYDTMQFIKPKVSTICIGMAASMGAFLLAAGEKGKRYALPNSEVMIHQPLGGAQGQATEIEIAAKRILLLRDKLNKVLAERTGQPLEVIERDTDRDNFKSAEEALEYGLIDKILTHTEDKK
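FRET quenching reversal measured ClpP activation: 10 microg/mL B. subtilis ClpP at pH 8 with the FRET-FV decapeptide, read at 430 nm after 320 nm excitation. The 20-min minus 0-min signal was scaled between DMSO/no-enzyme wells and ADEP (5.8 microM final).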
TRPML1 ag = human mucolipin-1 channel agonism | activation, % (concentration not given with the values) | TRPML1-expressing cells, Ca2+ dye fluorescence, FDSS; host cell line not named in the record; reference of the full effect not given here | Q9GZU1 | 410,000 tested, 0.12% active; in the data active = activation above about 50%; inconclusive = about 30% to 50%; inactive = below about 30%; further: 0% is about no effect; the text of the record puts the active cut at 80%
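Agonist activity was taken from a 110 s kinetic Ca2+ dye read on the FDSS after pinning compounds onto TRPML1-DL cells. The cells were seeded at 1,500/well with Tet inducer, incubated about 16 h, then dye-loaded at room temperature.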
TRPML1 blocker = inhibitors of human TRPML1 channel. Q9GZU1. TRPML1-inducible cells, Ca2+ dye fluorescence, FDSS; stronger effect = lower value; inhibition of EC80 agonist-evoked calcium signal. activity change, negative = inhibition, % (test concentration not listed). 390,000 tested, 0.02% active; in the data active means activity change below about -50%; inconclusive means about -30% to -50%; inactive means above about -30%;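 further: stimulus is agonist 54-4 at its EC80 concentration; on the % scale 0 is the no-effect control and ±100 the full control effect; compound concentration not given in the record; the text of the record puts the active cut at -80%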
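Calcium fluorescence in TRPML1-DL cells induced overnight with Tet: a 110 s read after compound pin addition, then a 110 s antagonist read after challenge with 54-4 at 4 uM final (EC80).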
Sfp PPTase inh = inhibitors of Bacillus subtilis Sfp phosphopantetheinyl transferase; Biochemical Sfp PPTase activity, qHTS; Potency, µM, for inactives: max response, negative = inhibition, hits mostly inhibitors; 310,000 tested, 3.5% active; active means well fitted inhibition curve with a large enough effect; inconclusive means small, poorly fitted or top-dose-only effect, or another doubt; inactive means no such curve, though single readings can be large or run the other way;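 further: the enzyme is Sfp with the accession as filed and its product quenches rhodamine fluorescence; potency means the concentration at half of the fitted maximal effect; 0% = enzyme reaction without inhibitor and -100% = no enzyme wells; top concentration of the series not given in the record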
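Compounds were incubated with enzyme (final 15 nM) for 15 min at room temperature before substrate addition started the reaction. Fluorescence at 525 nm excitation, 598 nm emission was recorded immediately and after 30 minutes.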
An asterisk follows results filed as active; ? = inconclusive; / = not tested or not shown; & = joins results of further samples; [ ] = dose if it differs, or a comment.

SMILES	Menin-MLL FL inh	PINK1 expr mod	TRPV1 PAM	ClpP mod	TRPML1 ag	TRPML1 blocker	Sfp PPTase inh
Cc1cc2ccccn2c1C(=O)c1ccc(N/N=C/c2ccc(C(=O)O)cc2)c([N+](=O)[O-])c1	3.7	0.1%	-5	-1.4%	-0.5	2	5%
COc1cc(NC(=O)c2ccc(-c3ccnn3C)c3ccoc23)cc(OC)c1OC	/	6.5%	/	?	-0.8	/	/
Cc1ccc(S(=O)(=O)N2CCOCC2)cc1NC(=O)COC(=O)CNC(=O)c1ccc(C(C)(C)C)cc1	3.6	3.4%	12	/	0.1	24	14%
CCOc1ccccc1OCCC(=O)OCC(=O)Nc1c(C)nn(-c2ccccc2)c1C	/	-1.6%	-6	-18%	-0.7	-2	/
COc1cc(NC(=O)CSc2nnnn2Cc2ccccc2)cc(OC)c1	-2.3	-0.7%	-10	-2.3%	0.0	-13	8%
Cc1cnc(NC(=O)COc2ccc3c(c2)CCC3)s1	/	4.7%	-9	1.1%	-0.4	2	17%
C/C(N)=C(/C#N)C(=O)CSc1nnc(-c2ccc3c(c2)OCO3)o1	6.9	-0.5%[38.3 µM]	7	6.0%	-0.5	-4	7%
CC(OC(=O)Cc1c[nH]c2ccccc12)C(=O)Nc1ccccc1[N+](=O)[O-] (stereo not given)	/	3.7%	13	/	-0.4	-5	/
O=C(Cn1cnc2c(nnn2Cc2ccc(F)cc2)c1=O)NCc1ccc(F)cc1	-0.1	9.0%	11	/	0.3	-14	18%
COc1ccc(CC(=O)NC(C)CCc2ccccc2)cc1 (stereo not given)	-0.4	0.4%	-15	/	0.1	-17	3%
CN(CC(=O)Nc1ccccc1C(F)(F)F)C(=O)C1CCN(S(=O)(=O)c2ccc3c(c2)OCCO3)CC1	/	1.7%	28	0.8%	-1.1	-5	/
Cc1ccc(NC(=O)CSCc2cc(=O)n3cc(C)sc3n2)cc1	0.2	-0.6%	-9	-2.5%	0.3	-7	23%
COc1ccc(C)cc1NCC(=O)Nc1ccc(C(C)(C)C)cc1	-0.7	?	?	-4.4%	1.7	?	21%
O=C(c1ccco1)N1CCN(C(=O)C2CC2)CC1	3.8	-1.1%	-4	0.3%	4.2	10	14%
Fc1cc(F)cc(NC(=S)NN2CCOCC2)c1	-1.4	-0.9%	-6	-2.9%	-0.7	4	-7%
C/C(=N\NC(=O)Cc1cccn1C)c1cccc2ccccc12	0.8	-0.1%	-3	-1.7%	0.0	-11	1%
COc1ccccc1NC(=O)Nc1nc(CC(=O)Nc2ccccc2F)cs1	/	1.5%	5	1.5%	2.8	-2	/
Nc1c(-c2ccc(Cl)cc2)cnc2c(-c3ccc(F)cc3)cnn12	-2.9	6.8%	-21	3.7%	1.9	59	8%
CC(Oc1ccccc1)C(=O)Nc1ccccc1F (stereo not given)	4.0	-0.7%[38.3 µM]	7	1.0%	-0.1	-5	20%
COc1ccc(Cl)cc1C(=O)Nn1cnnc1	3.2	-1.2%	-34	-1.9%	-0.2	9	25%
CCOC(=O)N1CCC(NS(=O)(=O)c2cc(C(=O)OC)n(C)c2)CC1	1.4	-0.6%	-6	-1.0%	-0.7	-5	6%
COc1ccc(Cl)cc1Nc1nc2ccc(C)cc2n2cnnc12	4.7	8.6%	-8	/	0.0	14	4%
O=C(Oc1cccc([N+](=O)[O-])c1)c1ccc2c(=O)n3c(nc2c1)CCC3	/	-0.9%	-2	4.8%	-0.8	3	/
Cn1c(=O)c2c(nc(Br)n2CCSc2nnnn2-c2ccccc2)n(C)c1=O	-0.3	7.4%[38.3 µM]	-8	-1.1%	-0.8	5	6%
Cc1cc(NC(=O)c2cc(-c3cccc(Cl)c3)on2)n(-c2ccccc2)n1	/	5.3%	/	-3.6%	-0.9	-16	/
COc1ccc(F)cc1S(=O)(=O)Nc1ccncc1	-2.3	-0.3%	2	1.0%	-0.1	-3	2%
CCOC(=O)C1=C(CS(=O)(=O)c2ccccc2)NC(=O)NC1c1cccc(OC)c1 (stereo not given)	2.0	-2.5%	-46	/	-0.5	-2	-9%
COCc1[nH]nc2c1C(c1ccc(OC)c(OC)c1)C(C#N)=C(N)O2 (stereo not given)	-1.0	-1.0%	-1	-0.5%	2.2	-11	-8%
C/C(=N/NC(=O)c1ccncc1)c1ccc(NC(=O)c2ccccc2)cc1	0.5	1.0%	-13	-0.2%	0.2	26	-5%
O=C(NNc1cc(N2CCOCC2)nc(N2CCOCC2)n1)C12CC3CC(CC(C3)C1)C2	6.3	0.2%	-1	-1.8%	-0.3	-10	-7%
CN1CCc2c(sc(NC(=O)c3cc4cc([N+](=O)[O-])ccc4s3)c2C(N)=O)C1	-4.3	/	5	/	/	/	-8%
O=C(CN1C(=O)CSc2ccccc21)Nc1ccccc1C(=O)N1CCOCC1	2.6	-0.9%[38.3 µM]	30	-1.4%	0.6	49	2%
S=C(NCc1ccccc1)NN1CCOCC1	0.9	-0.2%	2	0.2%	2.2	3	17%
O=[N+]([O-])c1ccc(COn2nnc3ccccc32)cc1	-5.3	1.8%	-10	/	-0.7	6	8%
CCOc1ccc(CCNC(=O)C2CCCN(C(=O)N(C)C)C2)cc1OCC (stereo not given)	5.8	-0.8%[38.3 µM]	4	0.0%	-0.1	4	12%
CC(=O)NC(C(=O)NCC(N)=O)C(C)C (stereo not given)	-1.6	7.5%[38.3 µM]	-3	1.8%	-0.4	-4	19%
Cn1c(=O)c2c(nc(OCc3ccccc3)n2C)n(C)c1=O	-7.3	2.8%	-11	0.1%	-1.0	12	12%
O=C(/C=C/c1ccc2c(c1)OCO2)NCCS(=O)(=O)N1CCN(c2ccc(F)cc2)CC1	/	11%	1	8.2%	0.5	-3	/
CCc1cc2c(cc3c(=O)n(CC(=O)NCc4cc(Br)ccc4OC)ncn32)s1	/	1.7%	/	0.8%	-0.6	1	/
COC(=O)[C@@H](Cc1ccccc1)N(Cc1ccccc1)S(=O)(=O)N(Cc1ccccc1)[C@H](Cc1ccccc1)C(=O)OC	/	1.1%	/	1.5%&0.5%	7.2&17	-22	/
CCOc1ccc(N(CC(=O)N2CCCC2)S(=O)(=O)c2ccc(F)cc2)cc1	/	-0.3%	-22	-2.1%	0.0	13	0%
CCOC(=O)N1CCN(c2c(-c3ccc(C)cc3)c(=O)c2=O)CC1	3.9	-1.4%	-1	-0.2%	0.9	-7	8%
CN(C)CCCNCC(=O)NN(c1ccccc1)c1ccccc1	0.4	-0.6%	6	/	0.3	-17	-34%
CSc1cccc(NC(=S)N2CCC(N(C)C3CCCCCC3)CC2)c1	-6.2	1.1%	-14	/	0.8	9	14%
COc1ccccc1N1CCN(C(=O)CN(Cc2ccccc2)S(C)(=O)=O)CC1	2.0	0.9%[38.3 µM]	0	-1.4%	0.2	-9	14%
COCCN(C(=O)CNC(=O)c1ccco1)C(C(=O)NC1CCCC1)c1cccs1 (stereo not given)	1.5	-0.1%	0	-1.5%	0.6	10	10%
Cc1ccc(C(=O)COC(=O)COc2ccc(C)c(C)c2)cc1	/	-0.3%	-21	1.0%	-0.2	-8	-5%
CC(NC(=O)C(=O)N1CCOCC1)C(c1cccs1)N1CCN(c2ccc(F)cc2)CC1 (stereo not given)	/	-0.4%	-32	-1.9%	0.4	-13	11%
CNc1ccc(-c2nc(-c3ccccc3C)no2)cc1[N+](=O)[O-]	/	0.3%	/	1.0%	-0.7	-21	/
O=C(/C=C/c1ccccc1)NC1CC2CCCC(C1)N2Cc1ccccc1 (stereo not given)	0.3	/	-17	/	/	/	1%
CCCNC(=O)N1CCCN(S(=O)(=O)c2ccc3c(ccn3CC)c2)CC1	/	-1.5%	/	-4.2%	1.8	20	/
O=C(/C=C\c1ccc2c(c1)OCO2)Nc1nnc(SCC(=O)OCc2ccccc2)s1	-5.1	/	5	/	/	/	7%
O=C(NCc1ccccc1)[C@@H]1C[C@H]1[C@@H](NP(=O)(c1ccccc1)c1ccccc1)c1ccccc1	2.4&1.2	0.8%	-2	-3.7%	-0.5	-25	2%&0%
COC(=O)C1CCN(C(=O)[C@H](C)NC(=O)C2CC(=O)N(c3ccc(F)cc3)C2)CC1 (stereo not given in full)	/	-1.4%	4	1.9%	-0.4	-2	2%
CC(C)(C)C(=O)Nc1nnc(SCC(=O)NCc2cccs2)s1	-0.8	1.0%	4	0.8%	0.8	2	18%
CN1CCN(c2oc(-c3ccccc3Cl)nc2S(=O)(=O)c2ccccc2)CC1	/	-0.6%	-10	-1.2%	0.4	15	-1%
CN1CCN(C(=O)COCc2cc(-c3ccc4c(c3)OCO4)on2)CC1	5.6	0.6%	-6	-26%	-0.7	-3	11%
COc1ccc(S(=O)(=O)N2CN(Cc3ccco3)c3nc4ccccc4nc32)cc1	?	-0.3%[38.3 µM]	-4	?	1.1	10	56µM*
O=C(CSc1nnc(-c2ccccc2)n1-c1ccc(Cl)cc1)NC1CCS(=O)(=O)C1 (stereo not given)	-0.5	-1.1%	-17	-5.3%	-0.5	10	21%
CC(=O)Oc1ccc(OC(C)=O)c(SCCCCCCl)c1	2.6	3.4%	20	/	2.5	-14	8%

Two successive compounds from above, for reference:
SMILES	Menin-MLL FL inh	PINK1 expr mod	TRPV1 PAM	ClpP mod	TRPML1 ag	TRPML1 blocker	Sfp PPTase inh
CNc1ccc(-c2nc(-c3ccccc3C)no2)cc1[N+](=O)[O-]	/	0.3%	/	1.0%	-0.7	-21	/
O=C(/C=C/c1ccccc1)NC1CC2CCCC(C1)N2Cc1ccccc1 (stereo not given)	0.3	/	-17	/	/	/	1%

The results go on.
SMILES	Menin-MLL FL inh	PINK1 expr mod	TRPV1 PAM	ClpP mod	TRPML1 ag	TRPML1 blocker	Sfp PPTase inh
Cc1ccnc(NC(=O)c2ccc(NC(=O)c3ccco3)cc2)c1	-0.9	-4.0%	2	0.4%	1.8	9	1%
Cc1[nH]c2ccccc2c1C(c1ccncc1)N1CCN(c2ccccn2)CC1 (stereo not given)	-1.9	1.6%	-18	-2.2%	0.7	-6	?
Cc1cc(OCC(=O)N[C@@H](Cc2c[nH]c3ccccc23)C(=O)O)c2c(C)c(C)c(=O)oc2c1	-16	-0.6%	11	-18%	/	/	26%
CCN(c1ccccc1)S(=O)(=O)c1c[nH]c2ccc([N+](=O)[O-])cc12	-0.4	?	1	-2.0%	-0.4	-5	6%
COC(=O)c1cc(Cl)c(NC(=O)/C=C/c2ccc(OC)c(OC)c2)cc1OC	1.5	6.1%[38.3 µM]	21	28µM*	-0.3	1	8%

High-throughput results deposited in PubChem by National Center for Advancing Translational Sciences (NCATS).
